# KCNQ2 enhance – potentiators of rat KCNQ2 potassium channel; O88943; CHO-K1 KCNQ2, FluxOR thallium flux fluorescence; stronger effect = higher value; B-score at 10 µM; 310,000 compounds, 0.54% hits; AID 2239;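 active means fluorescence ratio B-score at least 3 SD of library B-scores, with initial fluorescence B-score within 3 SD, cut at about 5.3 in these data; same plate scores as AID 2156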;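 further: B-score of peak minus minimum over baseline fluorescence ratio after K+ and Tl+ stimulus; positive B-score means potentiation of KCNQ2 with more thallium influx and brighter signal; only the inactives scoring about 0 or higher are listed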
# Target sequence (O88943 whole entry, looked up): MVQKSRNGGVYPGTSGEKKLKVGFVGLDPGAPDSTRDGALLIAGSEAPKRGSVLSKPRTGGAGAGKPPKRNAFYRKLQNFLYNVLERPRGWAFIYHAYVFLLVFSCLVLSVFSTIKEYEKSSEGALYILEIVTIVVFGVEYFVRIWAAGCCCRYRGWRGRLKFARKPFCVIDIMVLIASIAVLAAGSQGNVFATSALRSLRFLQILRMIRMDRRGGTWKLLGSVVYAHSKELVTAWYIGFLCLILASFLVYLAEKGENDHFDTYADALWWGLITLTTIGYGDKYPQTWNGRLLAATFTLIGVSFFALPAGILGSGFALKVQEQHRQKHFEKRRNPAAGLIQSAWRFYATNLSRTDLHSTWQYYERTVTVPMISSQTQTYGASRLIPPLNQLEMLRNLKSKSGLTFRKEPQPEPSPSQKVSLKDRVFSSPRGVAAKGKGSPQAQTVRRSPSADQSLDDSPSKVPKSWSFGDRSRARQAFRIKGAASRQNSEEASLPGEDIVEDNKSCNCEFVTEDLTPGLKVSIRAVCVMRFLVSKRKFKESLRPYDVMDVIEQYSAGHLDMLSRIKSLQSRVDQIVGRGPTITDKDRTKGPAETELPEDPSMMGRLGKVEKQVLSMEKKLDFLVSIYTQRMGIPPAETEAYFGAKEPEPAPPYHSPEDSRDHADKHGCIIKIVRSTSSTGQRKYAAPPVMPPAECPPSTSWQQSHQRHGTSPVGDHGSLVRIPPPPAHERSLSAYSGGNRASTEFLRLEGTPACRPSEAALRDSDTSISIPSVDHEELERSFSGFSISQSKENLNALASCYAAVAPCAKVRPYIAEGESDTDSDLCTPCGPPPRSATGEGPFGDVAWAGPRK
# KCNQ2 enhance baseline – further read-out of KCNQ2 enhance, marked with its call; B-score; compound at 10 µM; measured here: initial fluorescence intensity artifact check;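 brightness before thallium and not channel activity; 0 = typical well and far values either way flag optical interference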
# Active calls of the source: *. Some of the compounds tested, so the mix of outcomes need not match the whole.
(1) O=C(Nn1cnc2ccccc2c1=O)c1ccccc1F
(2) Cc1ccc(Nc2nc(NCCO)nc(N3CCCC3)n2)cc1
(3) COc1cccc(N2C(=O)/C(=C\c3cccs3)NC2=S)c1
(4) CC/C(=N\N=C(/CC)c1ccccc1N)c1ccccc1N
(5) CC(C)(C)C1=Nn2c(nnc2-c2ccccc2F)SC1
(6) Nc1ccc(C(=O)N/N=C2\CCCc3c2[nH]c2ccccc32)cc1
(7) COCC(=O)Nc1ccc(Br)cc1C
(8) Fc1ccccc1/C=N/n1cnnc1
assay / compound,1,2,3,4,5,6,7,8
KCNQ2 enhance,1.9,1,1.5,0.67,0.62,0.77,1.7,0.05
KCNQ2 enhance baseline,-2.2,1.4,-0.9,0.98,-0.26,0.49,-1.5,0.12

(9) Cc1ccc(Nc2nnc(SCC(=O)Nc3cccc(S(=O)(=O)NC4=NCCCCC4)c3)s2)c(C)c1
(10) Cc1csc(SCC(=O)Nc2ccc(S(=O)(=O)N3CCCC3)cc2)n1
(11) CC(=C/c1ccco1)/C=N/NC(=O)c1ccncc1
(12) CCOC(=O)C1CCN(C(=O)COC(=O)CSc2ccc([N+](=O)[O-])cc2)CC1
(13) COc1ccc2nc(N3CCCCC3)c(C#N)cc2c1
(14) CCCC(=O)Nc1ccc2c(c1)nc(CN1CCN(C(=O)OCC)CC1)n2CC
(15) Cc1cc(-c2nnc(SCC(=O)Nc3cccc(Cl)c3)n2N)n[nH]1
(16) O=C(COc1ccc(S(=O)(=O)N2CCOCC2)cc1)NCc1ccccn1
assay / compound,9,10,11,12,13,14,15,16
KCNQ2 enhance,0.04,0.98,0.78,0.85,1.2,0.38,0.63,0.73
KCNQ2 enhance baseline,0.06,-0.73,-0.66,1,1.1,-0.57,0.69,-0.14

(17) C/C=C(\C)CN1CCN(c2ccccc2)CC1
(18) CCc1c(C)nc2ncnn2c1NCCc1ccc(OC)c(OC)c1
(19) COc1ccc(OCCCC(=O)OC(C)C(=O)Nc2ccc(S(N)(=O)=O)cc2)cc1 (stereo not given)
(20) CCC(C)c1ccc(OCC(=O)Nc2ccc(CN3CCOCC3)cc2)cc1 (stereo not given)
(21) O=C1OCC2=C1C(c1ccc(F)cc1)CC(=O)N2c1ccccc1 (stereo not given)
(22) CN1CCC(CNC(=O)Nc2csc3ccccc23)CC1
(23) O=C(C#Cc1ccccc1)NCc1ccccc1F
(24) CCOC(=O)Cc1csc(NC(=O)c2ccc(NC(C)=O)cc2)n1
assay / compound,17,18,19,20,21,22,23,24
KCNQ2 enhance,1.3,2.9,0.28,1,1.9,1.2,0.42,1.2
KCNQ2 enhance baseline,0.7,-0.52,1.7,-0.55,1.2,-1.5,-1.6,2.1

(25) COc1cc(C2N(c3ccc(F)cc3)C(=O)C3CCCN32)cc(OC)c1OC (stereo not given)
(26) O=C(NCc1ccc(F)cc1)C(C(=O)NCc1ccc(F)cc1)c1ncc(C(F)(F)F)cc1Cl
(27) COC(=O)Cc1c(C)c2ccc(OCC(=O)NCc3ccc4c(c3)OCO4)cc2oc1=O
(28) COc1ccccc1CNS(=O)(=O)c1csc(C(N)=O)c1
(29) O=C(Cn1c(=O)oc2ccccc21)Nc1nc(-c2ccccc2)cs1
(30) COC(=O)C1=C(NC(=O)c2ccccc2[N+](=O)[O-])CCS1
(31) c1ccc(C2=Nn3c(nnc3-c3ccccn3)SC2)cc1
(32) COCC(C)NCc1ccc(C)cc1C (stereo not given)
assay / compound,25,26,27,28,29,30,31,32
KCNQ2 enhance,1.1,0.68,0.01,1.1,1.1,0.16,0.73,1.4
KCNQ2 enhance baseline,-0.81,1.2,0.76,0.21,-1.9,-0.21,-0.32,0.84

(33) COc1ccc2cc(C(=O)O)n(CC(=O)c3ccccc3)c2c1
(34) CCOC(=O)c1nn(-c2ccc(Cl)cc2C)ccc1=O
(35) O=c1c(N2CCOCC2)c(N2CCOCC2)c1=O
(36) COc1ccc(CNC(=O)C2CCN(c3nn4c(=O)cc(C)nc4s3)CC2)cc1
(37) COc1ccccc1C(=O)Nc1ccnn1C1CCN(C(=O)c2cnsn2)CC1
(38) COC(=O)C1=C(C(=O)OC)[C@@H]2N(C)c3ccc(OC)cc3[C@@]23C[C@@H](C(=O)OC)N=C3N1
(39) CCOC(=O)C1=C(COC(=O)c2ccc(OC)c(OC)c2OC)NC(=O)NC1C (stereo not given)
(40) CN(CC(=O)Nc1ccc(F)cc1)C(=O)c1cccc(S(=O)(=O)N2CCN(c3ccc(F)cc3)CC2)c1
assay / compound,33,34,35,36,37,38,39,40
KCNQ2 enhance,0.68,0.16,0.76,0.73,0.03,0.72,1.1,0.71
KCNQ2 enhance baseline,1.3,-0.45,0.07,2.8,-0.07,0.88,0.29,-0.34

(41) COc1cccc(CNC(=O)C2CCN(S(=O)(=O)c3ccccc3)CC2)c1
(42) CCN(CC(=O)Nc1ccccc1OC)CC(=O)Nc1c(Cl)ccc(C)c1Cl
(43) Cc1[nH]c2ccccc2c1/C=N/NC(=O)c1cccc(S(=O)(=O)Nc2cccc(C(F)(F)F)c2)c1
(44) Cc1ccc(Cl)cc1N1CCN(S(=O)(=O)c2cn(C)cn2)CC1
(45) CC(NC(=O)Cc1ccccc1)C(c1ccccc1)N1CCOCC1 (stereo not given)
(46) Cc1ccccc1NC(=O)c1ccc2c(c1)C(=O)N(CCC(C)C)C2=O
(47) COc1ccc(NC(=O)CSCC(=O)Nc2cc(Cl)ccc2N2CCCC2)cc1
(48) CCCCCCc1ccc(N2C[C@H](CCCCC)[C@@H](CC(=O)NCc3ccc(OC)cc3)C2=O)cc1
assay / compound,41,42,43,44,45,46,47,48
KCNQ2 enhance,0.71,0.08,0.07,0.53,1.8,1,7.1*,1.4
KCNQ2 enhance baseline,-0.26,-2.3,-0.14,-0.98,2.2,0.77,1.5*,0.02

(49) CC#CC(=O)NCC1(N(C)Cc2ccccc2)Cc2ccccc2C1
(50) CC1(C)CC(=O)C(C=NCc2cccnc2)=C(O)C1
(51) O=C(CSc1ccc2nnc(-c3ccccn3)n2n1)Nc1nccs1
(52) CC[C@@]12C(=O)N(c3ccccc3)C(=O)N1[C@H](c1ccc(OC)cc1)[C@@H]1C(=O)N(C(C)(C)C)C(=O)[C@@H]12
(53) CCSc1nnc2ccc(-c3ccc(C)cc3)nn12
(54) Cc1ccc(NC(=O)c2ccccc2N(C)S(C)(=O)=O)cc1C
(55) CCCC/C(C)=N/NC(=O)NC1CCCCC1
(56) NS(=O)(=O)c1cccc(NC(=S)NCc2ccc3c(c2)OCO3)c1
assay / compound,49,50,51,52,53,54,55,56
KCNQ2 enhance,0.84,1.5,2.1,0.44,0.41,1.2,0.35,0.58
KCNQ2 enhance baseline,-1.3,0.43,0.4,-0.99,3.5,0.59,-0.05,1.6

(57) O=C(NN=C1CCCCCC1)c1c[nH]c2ccccc12
(58) Cc1nc2cc(C(F)(F)F)ccc2n1C1CCN(CC(=O)N2CCCC2)CC1
(59) O=C(Nc1cccc(C(=O)O)c1)/C(=C\c1ccc2c(c1)OCO2)NC(=O)c1ccccc1
(60) COc1ccc(OCCCC(=O)Nc2nc(C)c(C(C)=O)s2)cc1
(61) COc1cc(OC)cc(-c2ncc3ccccn23)c1
(62) Nc1ccc(Sc2ccc([N+](=O)[O-])cc2)cc1
(63) O=C(NCCc1ccccn1)c1cccnc1Oc1ccc(Cl)cc1
(64) COc1cc(/C=C2\SC(=O)NC2=O)ccc1Oc1ccc([N+](=O)[O-])cc1[N+](=O)[O-]
assay / compound,57,58,59,60,61,62,63,64
KCNQ2 enhance,0.52,0.86,0.12,1.5,0.37,0.29,0.42,3.2
KCNQ2 enhance baseline,-0.36,-0.02,-0.68,0.63,-1.6,-2.4,-0.15,-1.7

# Full records, looked up by structure. Values in the order: KCNQ2 enhance | KCNQ2 enhance baseline
# O=C(NN=C1CCCCCC1)c1c[nH]c2ccccc12 is listed as 0.52 | -0.36
# O=C(Nc1cccc(C(=O)O)c1)/C(=C\c1ccc2c(c1)OCO2)NC(=O)c1ccccc1 is listed as 0.12 | -0.68
# COc1ccc(OCCCC(=O)Nc2nc(C)c(C(C)=O)s2)cc1 is listed as 1.5 | 0.63
# COc1cc(OC)cc(-c2ncc3ccccn23)c1 is listed as 0.37 | -1.6

# (next part)
(65) COc1ccccc1N1CCN(C(=S)NC(=O)/C=C/c2ccc(F)cc2)CC1
(66) O=C(Nc1ccc(S(=O)(=O)N2CCOCC2)cc1)c1ccccc1
(67) COc1cc(OC)c(NC(=O)[C@@H]2CCC(=O)N2C2OC(=O)c3c2ccc(OC)c3OC)cc1Cl (stereo not given in full)
(68) CC1CN(CCOCCSc2ccccc2)CC(C)O1 (stereo not given)
(69) Cc1ccc(NC(=O)C(C)c2cccc(C(=O)c3ccccc3)c2)cc1O (stereo not given)
(70) CCOC(=O)C1=C(O)C(Nc2nc3ccccc3s2)(C(F)(F)F)N=C1C (stereo not given)
(71) COc1ccc(C(=O)Nc2ccc(Cl)cc2C(=O)NCCN2CCOCC2)cc1
(72) O=C(O)CCCC(=O)NCc1ccccn1
assay / compound,65,66,67,68,69,70,71,72
KCNQ2 enhance,2.4,0.06,0.78,3.1,4.2,0.58,0.87,0.43
KCNQ2 enhance baseline,-0.89,-0.25,-0.14,-1.1,-1,-0.17,0.07,-1.5

(73) CN1CCc2nc(NC(=O)COc3ccc4ccccc4c3)sc2C1
(74) CCOC(=O)C1=C(CP(=O)(c2ccccc2)c2ccccc2)NC(=O)NC1c1ccc(OC)cc1 (stereo not given)
(75) C#CCNC(=O)C1=C[C@@H](c2ccc3c(c2)OCO3)C[C@@H](OCCCCO)O1
(76) CN(Cc1ccc(F)cc1)Cc1nc(-c2cnccn2)no1
(77) CSCCC(NC(=O)COc1ccccc1)C(=O)N1CCN(C(C)=O)CC1 (stereo not given)
(78) CN(C)CCNC(=O)C(=O)c1c(-c2ccccc2)cc2ccccn12
(79) COC(=O)c1ccc(S(=O)(=O)N2C3CCC2CC(NC(=O)NC2CCCCC2)C3)cc1 (stereo not given)
(80) Cc1c(CN2CCN(CC(C)C)C(CCO)C2)[nH]c2ccc(Cl)cc12 (stereo not given)
assay / compound,73,74,75,76,77,78,79,80
KCNQ2 enhance,2.3,0.04,1.3,0.68,0.57,1.3,0.03,0.38
KCNQ2 enhance baseline,0.67,-0.01,-0.14,-0.68,2,-0.02,0.34,0.48

(81) Cc1ccc(N(CC(=O)N2CCCC2)S(C)(=O)=O)c(C)c1
(82) COc1ccc(C(=O)N/C(=C\c2cccc([N+](=O)[O-])c2)C(=O)Nc2cccc(C(=O)O)c2)cc1
(83) CCOC(=O)C(C)N1C(=O)S/C(=C/c2cc(C)n(-c3ccncc3)c2C)C1=O (stereo not given)
(84) N#Cc1ccccc1NC(=O)CSc1nnc(-c2ccccc2)n1-c1ccccc1
(85) O=C(Nc1ccc(N2CCOCC2)cc1)c1cccc(S(=O)(=O)N2CCC(Cc3ccccc3)CC2)c1
(86) CCN(Cc1ccccc1)C(=O)Cn1cc(S(=O)(=O)NC)c(S(=O)(=O)NC)c1
(87) Cc1ccc2c(c1)COc1c3ccc(C(=O)O)cc3nn1-2
(88) O=C(Nc1nnc(C2=COCCO2)o1)c1ccc(F)cc1
assay / compound,81,82,83,84,85,86,87,88
KCNQ2 enhance,2.7,0.2,2.8,0.48,1.7,0.19,0.82,5
KCNQ2 enhance baseline,1.1,-1.4,-0.51,0.59,1.4,-1.5,-1.3,-0.96

(89) O=C(COC(=O)CCS(=O)(=O)c1ccccc1)NC(=O)c1ccc(OC(F)F)cc1
(90) COc1ccc(-c2[nH]ncc2CN2CCCC(C(=O)c3ccc(OC)cc3OC)C2)cc1 (stereo not given)
(91) O=C(NC1CCCC1)C(c1ccccn1)N(C(=O)c1csnn1)c1ccccc1 (stereo not given)
(92) COc1ccc(CCNC(=O)c2c[nH]c3ccc(F)cc3c2=O)cc1OC
(93) CCN1CCN(C(=O)/C=C/c2cccc(Cl)c2)CC1
(94) COc1cccc(NC(=O)CN(C)C(=O)CN2C(=O)NC(C)(c3ccc4ccccc4c3)C2=O)c1 (stereo not given)
(95) CC(C)(C)NC(=O)CSc1nsc(SCC(=O)NC(C)(C)C)c1C#N
(96) COc1cc(OC)cc(C(=O)Nn2cnnc2)c1
(97) O=C(CN1CCOCC1)Nc1ccc2c(c1)OCO2
assay / compound,89,90,91,92,93,94,95,96,97
KCNQ2 enhance,0.54,1.1,0.24,2,0.33,0.82,0.17,1.1,1.1
KCNQ2 enhance baseline,-0.24,-0.36,1.9,1.3,-0.58,-0.77,0.74,-1.1,1.3

# Looked up by compound from the entries so far, three records:
(91) O=C(NC1CCCC1)C(c1ccccn1)N(C(=O)c1csnn1)c1ccccc1 (stereo not given)
(93) CCN1CCN(C(=O)/C=C/c2cccc(Cl)c2)CC1
(95) CC(C)(C)NC(=O)CSc1nsc(SCC(=O)NC(C)(C)C)c1C#N
assay / compound,91,93,95
KCNQ2 enhance,0.24,0.33,0.17
KCNQ2 enhance baseline,1.9,-0.58,0.74

# Entries by screen from above:
# Entries 52 to 62 in KCNQ2 enhance, in turn: 0.44, 0.41, 1.2, 0.35, 0.58, 0.52, 0.86, 0.12, 1.5, 0.37, 0.29
# Entries 52 to 62 in KCNQ2 enhance baseline, in turn: -0.99, 3.5, 0.59, -0.05, 1.6, -0.36, -0.02, -0.68, 0.63, -1.6, -2.4

# Assay outcomes: PubChem BioAssay, Johns Hopkins Ion Channel Center
